Source: PubChem BioAssay (National Center for Advancing Translational Sciences (NCATS))
Vaccinia mCherry: vaccinia inhibition (mCherry reporter) | Vaccinia virus mCherry reporter infection, fluorescence; about a quarter of the inactives have no number | Potency, µM (doses to about 36.5 µM), without a hit: at the highest dose activity change, negative = inhibition, usual class: inhibitors | 310,000 compounds, 0.63% hits | AID 720579; active = well fitted inhibition curve with a large enough effect; inconclusive = small, poorly fitted or top-dose-only effect; inactive = no such curve, though single readings can be large or run the other way; tested in A549 cells; also: nearly all actives have a fitted effect of over 35% in size; inactives centre near -10
VACV Venus inh: vaccinia inhibition (Venus reporter) | 330,000 compounds, 0.46% hits | Vaccinia virus Venus reporter expression, fluorescence | Potency, µM (doses to about 36.5 µM), for inactives: at the highest dose activity change, negative = inhibition, most hits filed as inhibitors; active means well fitted inhibition curve with a large enough effect; inconclusive means small, poorly fitted or top-dose-only effect; inactive means no such curve, though single readings can be large or run the other way; tested in A549 cells; also: nearly all actives have a fitted effect of over 30% in size; inactives centre near -10
* marks the source's active call; other numbers are inactive results; i = inactive; ? = inconclusive; / = no result given; [ ] = remark or other dose. % is scaled to controls: 0 for no effect and ±100 for the full control effect; potency is read from the fitted curve at half-maximal effect. Rows were taken by chance; any-hit rate near 0.82%.

smiles,Vaccinia mCherry,VACV Venus inh
CCn1c(C(O)c2cc(OC)c(OC)c(OC)c2)nc2ccccc21 (centres undefined),i,-7.2%
CCCc1nc2ccc(C(=O)OC)cn2c1Cc1ccc(C)cc1,i,-4.1%
COC(=O)c1cccc(C(=O)Nc2ccc(C)cc2Br)n1,-14.1%,0.2%
NC(=O)c1csc(-c2ccc(CO)o2)n1,15.2%,-3.0%
CCC(CC)c1nnc(NC(=O)C2CC(=O)N(c3ccc4c(c3)OCCO4)C2)s1 (centres undefined),-14.6%,5.7%
CC(=O)Nc1cccc(/C(C)=N/NC(=O)c2ccc(Cl)cc2Cl)c1,i,-11.9%
CC(C)(C)c1ccc(COC(=O)Nc2ccc(F)cc2)cc1,-22.2%,-12.6%
Clc1ccc(-c2cnnc(-c3ccccn3)n2)cc1,?,?
COc1cc(NC(=O)N2CCc3c(sc4c3CCCC4)C2c2ccccc2)cc(OC)c1OC (centres undefined),i,-22.6%
C[C@@]1(C2CCCC2)Cc2cc(OCC(=O)O)c(Cl)c(Cl)c2C1=O,i,-12.1%
Cc1ccc(N(CC(=O)N2CCN(c3cccc(C)c3C)CC2)S(=O)(=O)c2c(C)nn(C)c2C)cc1,-24.6%,-23.6%
Cc1ccc2c([N+](=O)[O-])c(C)ccc2n1,i,-15.2%
CCOC(=O)C(C)Oc1ccc(OCc2ccccc2)cc1 (centres undefined),-2.7%,3.9%
CCOC(=O)C1CCCN(C(=O)COC(=O)c2ccc(C#N)cc2)C1 (centres undefined),-0.7%,9.6%
S=C(NCCc1ccccc1)Nc1ccc(Br)cn1,i,-13.8%

Full records as entered above:
`CC(=O)Nc1cccc(/C(C)=N/NC(=O)c2ccc(Cl)cc2Cl)c1` reads Vaccinia mCherry: i; VACV Venus inh: -11.9%
`Clc1ccc(-c2cnnc(-c3ccccn3)n2)cc1` reads Vaccinia mCherry: ?; VACV Venus inh: ?

More records
smiles,Vaccinia mCherry,VACV Venus inh
Cc1ccc(/C=N/Nc2ccccn2)s1,-24.1%,-7.6%
CCCC(=O)NC(=S)Nc1ccc(C(C)=O)cc1,-3.1%,-2.7%
Cc1ccsc1C(=O)Nc1ccc(O)c(-c2nc3ccccc3s2)c1,-12.1%,15.4%
Cc1ccc(NC(=O)CS(=O)CC(=O)NCCCc2ccccc2)cc1Cl (centres undefined),-5.1%,-10.9%
CCOCCCNC(=S)N1CCC(C(=O)c2ccc3c(c2)OCCO3)CC1,i,-22.2%
CSc1ccc(S(=O)(=O)Nc2ccc(OCC(=O)N3CCOCC3)cc2)cc1,-1.3%,-4.8%
OCCC1CN(Cc2cn[nH]c2C2CCCCC2)CCN1Cc1ccccc1 (centres undefined),-19.2%,-13.7%
CCSC(=O)N1CCCCCC1,i,-6.2%
COc1ccccc1C(=O)NC(CCSC)C(=O)OCC(=O)N1CCN(S(=O)(=O)c2ccc(C)cc2)CC1 (centres undefined),-20.1%,-5.8%
CC(=O)Nc1ccc(C)cc1-c1nc2ccccc2n(CC(=O)c2ccc(Cl)cc2)c1=O,-17.8%,-9.8%
Cc1ccc(F)cc1-c1nc(NC(C)C)nc2cc(-c3ccccc3)sc12,-21.2%,-7.1%
Cc1cccc2sc(N3CCN(C(=O)c4cccs4)CC3)nc12,-9.6%,-5.9%
CC(/C=C/c1ccco1)=N\NC(=O)c1cccc(Cl)c1,-10.2%,-16.4%
CCn1c(NN=O)nc2ccccc21,?,-28.3%
NNC(=O)c1nc2ccccc2s1,?,-2.4%
CC1CCc2c(sc(NC(=O)COC(=O)c3ccc(NC(=O)CC#N)cc3)c2C#N)C1 (centres undefined),?,1.0%
Cc1ccc(N2CCN(c3nc4ccccc4c4nnc(C)n34)CC2)c(C)c1,-15.9%,-9.7%
O=S(=O)(NCc1csc(-c2cccs2)n1)c1cccs1,-12.9%,7.1%
CCN(CC)C(=O)C1=C(C)N(Cc2ccccc2)C(=O)C(CC(=O)NCc2ccco2)C1 (centres undefined),i,-22.6%
COc1ccccc1NC(=O)N1C[C@@H]2C[C@@H](C1)c1cccc(=O)n1C2,-5.8%,-1.8%
CCC(=O)c1cn(CCOc2ccccc2OC)c2ccccc12,-25.8%,-12.7%
CCc1cccc(NC(=O)C2Cc3ccccc3N2C(=O)c2ccccc2)c1 (centres undefined),-3.9%,-3.6%
O=C(CSc1cccc2cccnc12)Nc1cc(C(=O)O)cc(C(=O)O)c1,i,7.0%
O=C1N[C@@H](Cc2ccccc2)C(=O)N2[C@H]1C[C@H]1c3ccccc3N(OOSc3ccccc3)[C@H]12,?,-10.7%
CCOC(=O)CCNC(=O)N1CCCC(C(=O)c2cccc(OC(C)C)c2)C1 (centres undefined),-0.7%,-8.1%
Cc1ccc(NC(=O)c2ccc(F)c(S(=O)(=O)NCCc3ccccc3)c2)cc1F,?,-26.1%
Cc1noc(C)c1S(=O)(=O)NC(=O)C1(C)CCN1C(=O)c1ccccc1CCc1ccccc1 (centres undefined),28.8%,4.6%
COc1ncnc2c1ncn2CCCNCCN1CCOCC1,2.3%,-7.9%
O=C(CCC(=O)OCC(F)(F)C(F)F)Nc1ccccc1F,-6.0%,-5.4%
COc1cccc(OC)c1C(=O)Nc1nnc(-c2cccs2)s1,i,-0.6%

Structural class: the entries above with a furan ring, fused or not (three)
smiles,Vaccinia mCherry,VACV Venus inh
NC(=O)c1csc(-c2ccc(CO)o2)n1,15.2%,-3.0%
CC(/C=C/c1ccco1)=N\NC(=O)c1cccc(Cl)c1,-10.2%,-16.4%
CCN(CC)C(=O)C1=C(C)N(Cc2ccccc2)C(=O)C(CC(=O)NCc2ccco2)C1 (centres undefined),i,-22.6%

Other entries follow.
smiles,Vaccinia mCherry,VACV Venus inh
O=C(CN1CCSCC1)c1c[nH]c2ccccc12,-5.0%,-1.3%
CC1=C(c2cccc(Cl)c2)S(=O)(=O)NC1=NCc1ccccc1C,-15.9%,-9.2%
O=C(Cn1c(=O)cnc2ccccc21)N1CCN(S(=O)(=O)c2ccc(F)cc2)CC1,-13.7%,-7.8%
CC1(C(=O)NS(=O)(=O)c2ccc(F)cc2F)CCN1C(=O)Cc1cccc2ccccc12 (centres undefined),-1.1%,11.7%
COc1cccc(N(Cc2nnc3n2CCCCC3)C(=O)Nc2ccccc2)c1,-5.7%,-1.9%
COc1ccc(N(CC(=O)N2CCC(Cc3ccccc3)CC2)S(C)(=O)=O)cc1,-14.2%,-23.4%
CCN(c1ccc(C)cc1)S(=O)(=O)c1nnc(NC(=O)c2cccs2)s1,-4.1%,-11.8%
Cc1ccc(OCCSc2nnc(C)c(=O)n2N)cc1,-2.8%,5.4%
COc1cc2nc(C3CCC3)nc(N3CCN(c4ccccn4)CC3)c2cc1OC,-11.3%,-8.4%
CCCn1c(NC(=O)CSCC(=O)Nc2cc(C)on2)nc2ccccc21,i,-17.1%
COc1ccc(CNC(=O)CN2N=C(c3ccccc3)CCC2=O)c(OC)c1,-8.0%,-7.2%
COc1ccccc1C(=O)NC(=S)Nc1ccc(NC(=O)c2cccs2)cc1,-27.8%,-21.7%
O=Cc1ccc(O)cc1O,5.1%,4.0%
CC(C)(C)C(=O)NC1(C(F)(F)F)NC(=O)N(Cc2ccccc2)C1=O (centres undefined),-0.9%,-4.5%
CCC(=O)n1nc(-c2ccc(OC)cc2)nc1SC,/,-15.1%

Additional entries:
SMILES,Vaccinia mCherry,VACV Venus inh
N#Cc1c(-c2ccc(Cl)cc2)ccn2nc(CCC(=O)O)nc12,?,?
O=C(CCC(=O)N1CCSc2ccccc21)Nc1ccc(Cl)cc1,i,-11.1%
O=C(Cn1c(=O)[nH]c2ccsc2c1=O)N1CCN(c2ccc(F)cc2)CC1,-10.9%,-5.6%
O=C(CNC(=O)c1ccccc1)NCC(=O)OCC(=O)c1ccc([N+](=O)[O-])cc1,i,11.4%
CCS(=O)(=O)c1nc(S(=O)(=O)c2ccc(C)cc2)c(NCc2ccccc2Cl)s1,-19.3%,-3.6%
COc1ccc(OC)c(C(=O)c2c(C)oc3cc(Br)c(O)c(CN(C)C)c23)c1,-12.4%,-22.9%
CC(C)(C)c1ccc(C(=O)NCCC(=O)Nc2ccc3c(c2)OCCO3)cc1,-10.5%,-9.4%
CC(C)S(=O)(=O)N1Cc2ccccc2-n2nncc2C1,-11.6%,-2.4%
CC1CCCC(NC(=O)CSc2ncccc2C(=O)O)C1C (centres undefined),-14.1%[1.46 µM],?
O=C(NCc1cccs1)c1cccc(Nc2nc3ccc(Br)cc3[nH]2)c1,i,-12.0%
O=C(Nc1cccc(-c2nc3cc(Cl)ccc3o2)c1)C1CCCO1 (centres undefined),-8.8%,-1.4%
COc1cc(/C=C(\CC(=O)O)c2nc3ccccc3s2)cc(OC)c1O,-10.9%,7.7%
Cc1c(Cl)cccc1NC(=O)c1cc(-c2cccs2)on1,?,?
Cc1sc2nc(CN3CCCC3)nc(N3CCC(C(N)=O)CC3)c2c1C,/,-7.2%
COc1ccccc1OCCNC(=O)Cc1ccc(S(=O)(=O)N2CCOCC2)s1,-10.0%,-9.0%
CCCCn1nnnc1C(c1cc2ccccc2o1)N1CCN(c2c(C)cccc2C)CC1 (centres undefined),i,5.2%
CCCNC(=S)NC1CC2CCC(C1)N2Cc1ccccc1 (centres undefined),-18.6%,-8.7%
COC(=O)CN(c1cccc(C(C)=O)c1)S(C)(=O)=O,-11.6%,2.5%
COC(=O)/C=C1/N/C(=N\c2nc(C)cc(C)n2)N(c2ccccc2)C1=O,-20.8%,-4.6%
CC(C)(C)Cc1nc(-c2ccccn2)no1,i,-9.2%
O=C(Nc1ccccc1C(=O)NCc1ccccc1)c1ccco1,-4.9%,-15.7%
COc1ccc(N2CC(NC(=O)N3CCN(C(=O)c4ccco4)CC3)CC2=O)cc1OC (centres undefined),i,-10.8%
O=C1/C(=C/c2cccnc2)Sc2ccccc21,/,-14.0%
Cc1ccc(S(=O)(=O)Nc2ccc(N(C)S(=O)(=O)c3ccc(C)cc3)cc2)cc1,-15.4%,-9.1%
CC1(c2nnc(-c3ccncc3)o2)CC(c2ccc([N+](=O)[O-])cc2)=NO1 (centres undefined),i,-12.7%
COC(=O)c1ccc(NC(=O)CC2C(=O)N(c3cccc(F)c3)C(=O)N2CC(C)C)cc1 (centres undefined),6.9%,4.9%
CC(=O)N[C@@H](C)c1nc2ccccc2n1CCCN1CCN(c2nc(-c3ccc(C)cc3)cs2)CC1,?,?
O=C(N1CCCCC1)C1(c2ccccc2)CCOCC1,/,-12.2%
COc1cccc2cc(-c3ccnc(N)n3)oc12,-5.4%,-16.3%
COc1ccccc1N1CCN(S(=O)(=O)CCNC(=O)Cc2ccc(Cl)cc2)CC1,-29.3%,?
Cc1cc(C)nc(NS(=O)(=O)c2ccc(NC(=O)c3ccc(N4C(=O)CCC4=O)cc3)cc2)n1,-11.2%,-8.2%
CC1=CC2CC1C1C(=O)N(c3ccc(S(=O)(=O)Nc4nc(C)cc(C)n4)cc3)C(=O)C21 (centres undefined),-9.4%,5.9%
COC(=O)CCCn1cc(CN2CC(N3CCN(Cc4cccc(C)c4)CC3)CS2(=O)=O)nn1 (centres undefined),i,10.5%
Cc1cccc(NC(=O)CSc2nnc3scc(-c4ccccc4)n23)c1,-5.0%,-9.0%
CCN(CC(=O)Nc1ccc(N2CCOCC2)cc1)C(=O)c1ccc(C#N)cc1,-13.6%,-5.0%
Nc1nc(C(F)(F)F)c(Br)c(=O)n1N,-5.2%,-4.0%
COc1ccc(NC2=CC(c3ccc(F)cc3)N(c3ccc(OC)cc3)C2=O)cc1 (centres undefined),-18.1%,-7.7%
CCOC(=O)c1c(C)n(CCNC(C)=O)c2ccc(OC)cc12,-11.3%,-10.2%
Cc1ccc2oc(C(=O)Nc3nc(-c4ccc(F)cc4)ns3)c(C)c2c1,-1.1%,-8.5%
CCC1CCC(C(=O)NNC(=O)c2cc(-c3ccco3)[nH]n2)CC1 (centres undefined),-4.9%,-6.2%
COc1ccc(/C=C(\NC(=O)c2ccco2)C(=O)NC(Cc2ccccc2)C(=O)O)cc1 (centres undefined),i,-9.7%
Cc1cnc(C(=O)Oc2cccc(Cl)c2Cl)cn1,-14.8%,-13.3%
O=C1c2ccccc2S(=O)(=O)c2cc(N3CCN(C(=O)c4ccccc4)CC3)ccc21,-13.8%,?
CC[C@]12C(=O)N(C)C[C@H]([C@@H]3C(=O)N(C)C(=O)[C@@H]31)N2C(=O)c1ccccc1,i,-19.8%
CCOc1ccc(C(=O)OCc2cc(=O)n3nc(C4CCCCC4)sc3n2)cc1,-21.0%,-11.7%
CC[n+]1ccc(C)c2cc(P(=O)(c3ccccc3)c3ccccc3)ccc21,i,3.4%
Cc1ccc(NC(=O)/C(C#N)=C/c2ccc(C)s2)c(C)c1,2.7%,11.9%
Cc1cc(C)c(NC(=O)CSc2nc3ncc(Br)cc3[nH]2)c(Cl)c1,i[7.34 µM],-14.6%[7.34 µM]
O=C(NCCc1ccccc1Cl)c1ccc(Cn2c(=O)c3cccn3c3cccnc32)cc1,?,?
